Compound activity: PubChem, several laboratories
HIV Env fusion = inhibitors of HIV-1 Env-driven cell-cell fusion, primary screen, HeLa-JRFL effector, CEM21 target cells, luciferase | inhibition, % at 12.3 µM | hit rate 1.1% among 360,000 | AID 651610, 2012;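 active = mean replicate inhibition score of at least 50 and every replicate individually at or above 50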;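 note: 0% = plate neutral controls and 100% = maraviroc near 300 nM; one replicate is shown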
eIF4H FP inh = human eIF4H binding inhibitors, primary screen, translation initiation inhibitor project, biochemical, uHTS, fluorescence polarization | eIF4H fluorescence polarization binding assay | inhibition, % at 35 µM | hit rate 0.94% among 290,000;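 active = 50% or more with normal probe brightness, or confirmed in later tests; about a fifth of its hits are not listed in these tables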;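 note: calls also rest on retests at 20 µM and on dose response follow-up; 0% = protein and probe with vehicle and 100% = probe without protein; strong numbers were not always called active; many hits fall short of the cut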
MT1-MMP act inh = blockers of MT1-MMP proenzyme processing, primary screen, HT1080 RFP-PRO-GFP cells, GFP/RFP fluorescence | hit rate 0.061% among 360,000 | GFP/RFP ratio change, % at 20 µM | GFP/RFP ratio fluorescence, overnight; percent of plate control window, DMSO zero | Matrix metalloproteinase-14 (Homo sapiens), P50281 | AID 651647, 2012;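 active = GFP/RFP ratio change of at least 30% with cell ATP level not reduced by more than half and red fluorescence within 50% of control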; note: strong numbers were not always called active
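system = RFP-PRO-GFP reporter HT1080 cells | dosing = 20 µM single dose, 1% DMSO | timing = overnight cell settling, then overnight compound exposure, 37 °C, 5% CO2 | read-out basis = GFP/RFP fluorescence ratio | controls = DMSO and RFP-L50D-GFP cell wells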
PABP FP inh = PABP poly(A) RNA binding inhibitors, primary screen, biochemical, fluorescence polarization, uHTS; Polyadenylate-binding protein 1 (Homo sapiens), P11940; inhibition, % at 35 µM; hit rate 1% among 290,000; AID 2014, 2009;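 active = 50% or more with normal probe brightness, or confirmed in later tests; about a fifth of its hits are not listed in these tables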;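 note: calls also rest on retests at 20 µM and on dose response follow-up; controls were probe without protein and protein plus probe with vehicle; some compounds called inactive have numbers as strong as hits; many hits fall short of the cut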
Target sequence (P11940 whole entry, looked up): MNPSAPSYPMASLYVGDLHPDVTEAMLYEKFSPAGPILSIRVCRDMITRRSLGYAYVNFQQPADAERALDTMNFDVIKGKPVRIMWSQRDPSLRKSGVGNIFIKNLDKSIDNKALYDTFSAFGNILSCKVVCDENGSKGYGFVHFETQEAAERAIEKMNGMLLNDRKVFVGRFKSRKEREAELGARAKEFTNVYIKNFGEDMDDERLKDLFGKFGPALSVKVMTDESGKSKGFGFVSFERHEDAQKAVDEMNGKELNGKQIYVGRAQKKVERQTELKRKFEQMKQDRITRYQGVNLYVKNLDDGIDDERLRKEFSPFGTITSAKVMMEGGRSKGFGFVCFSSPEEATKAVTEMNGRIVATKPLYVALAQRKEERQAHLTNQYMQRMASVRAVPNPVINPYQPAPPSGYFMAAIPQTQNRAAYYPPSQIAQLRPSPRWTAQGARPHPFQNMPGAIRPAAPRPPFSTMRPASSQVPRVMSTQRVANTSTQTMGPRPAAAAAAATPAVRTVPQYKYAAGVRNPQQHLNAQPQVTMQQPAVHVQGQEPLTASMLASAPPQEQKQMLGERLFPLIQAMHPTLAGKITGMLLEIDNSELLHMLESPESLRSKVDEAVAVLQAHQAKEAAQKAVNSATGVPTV
Rce1 inh = yeast Rce1p protease inhibitors, primary screen, biochemical, fluorescence, cell-free homogeneous | CAAX prenyl protease 2 (Saccharomyces cerevisiae (strain ATCC 204508 / S288c)), Q03530 | yeast membranes, quenched prenylated peptide cleavage fluorescence | calls only | hit rate 0.27% among 290,000 | AID 2563, 2010;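 active = fall in fluorescence gain of 50% or more versus controls, with final raw signal at or below 3038400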;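 note: plate controls were neutral control wells for no effect and wells lacking membranes for full effect; tested at 10 µM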
UUG fidelity = modulators of yeast start codon fidelity, primary screen, whole organism, S. cerevisiae, single point, plate reader; S. cerevisiae UUG-firefly luciferase reporter, luminescence/redox ratio; activity score, % at 18.7 µM; hit rate 0.13% among 350,000; AID 602363, 2012;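 active = replicate mean at a twofold rise or more, about +100% in these data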;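 note: firefly luciferase made from a UUG start codon reports start codon fidelity; reporter light over untreated wells divided by growth signal over untreated wells; some hits fall short of that in this replicate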
CSC inhib = cancer stem cell viability inhibitors, primary screen, luminescence | hit rate 1.1% among 300,000 | AID 2717, 2010 | inhibition, % at 7.5 µM | cancer stem cell-like cells viability;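 active = mean at 75% or more and at least half the replicates too; tested in HMLE shEcad cells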;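 note: 0% = median of negative and 100% = median of positive control wells; the first replicate is given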
eIF4H FP inh retest = recorded beside eIF4H FP inh, whose call it bears; inhibition, %; compound at 20 µM; confirmation average;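 mean of two retest wells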
PABP FP inh retest = further read-out of PABP FP inh, marked with its call; inhibition, %; compound at 20 µM; confirmation repeats;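 mean of two retest wells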
MT1-MMP act inh RFP = recorded beside MT1-MMP act inh, whose call it bears; RFP signal change, %; measured here: RFP expression control read;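 0 = vehicle wells; hits needed this value within 50% of zero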
* marks the source's active call; other numbers are inactive results; i = inactive; · = no result given; & = joins results of further samples; [ ] = remark or other dose.

Start of the listing, in advance:
SMILES	HIV Env fusion	eIF4H FP inh	MT1-MMP act inh	MT1-MMP act inh RFP	PABP FP inh	Rce1 inh	UUG fidelity	CSC inhib	others
COc1ccc(Oc2nc(-c3cccnc3)nc3ccccc23)cc1	-9	-2	-6	-3	3	i	-17	10
O=C(COc1ncnc2cc([N+](=O)[O-])ccc12)NCCc1ccc(Cl)cc1	11	16	2	4	2	i	·	-1
COc1cccc(SCc2noc(C(=O)NC(C)C)c2C(=O)NC(C)C)c1	-9	·	2	-2	·	i	2	-7
Fc1ccc(Nc2ccnc(C(F)(F)F)c2)cc1	-2	2	-1	-7	-1	i	-10	·
COc1ccc(CC(=O)Nc2ccc(S(=O)(=O)NCC3CCCO3)cc2)cc1 (centres undefined)	37	-8	-2	-15	-11	i	-4	4
COC(=O)N(C)c1nc2ccccc2s1	·	4	2	0	0	i	-21	7
O=C(Nc1cccnc1)C1CCN(S(=O)(=O)c2ccc(Cl)cc2)CC1	4	1	-1	0	-7	i	-11	8

Main list, from the start:
SMILES	HIV Env fusion	eIF4H FP inh	MT1-MMP act inh	MT1-MMP act inh RFP	PABP FP inh	Rce1 inh	UUG fidelity	CSC inhib	others
COc1ccc(Oc2nc(-c3cccnc3)nc3ccccc23)cc1	-9	-2	-6	-3	3	i	-17	10
O=C(COc1ncnc2cc([N+](=O)[O-])ccc12)NCCc1ccc(Cl)cc1	11	16	2	4	2	i	·	-1
COc1cccc(SCc2noc(C(=O)NC(C)C)c2C(=O)NC(C)C)c1	-9	·	2	-2	·	i	2	-7
Fc1ccc(Nc2ccnc(C(F)(F)F)c2)cc1	-2	2	-1	-7	-1	i	-10	·
COc1ccc(CC(=O)Nc2ccc(S(=O)(=O)NCC3CCCO3)cc2)cc1 (centres undefined)	37	-8	-2	-15	-11	i	-4	4
COC(=O)N(C)c1nc2ccccc2s1	·	4	2	0	0	i	-21	7
O=C(Nc1cccnc1)C1CCN(S(=O)(=O)c2ccc(Cl)cc2)CC1	4	1	-1	0	-7	i	-11	8
CC1CCN(S(=O)(=O)N2CCC(C(=O)NCCC3=CCCCC3)CC2)CC1	0	9	2	1	4	i	·	-10
CCOC(=O)c1c(C)[nH]c(C(=O)COC(=O)CCSc2ccccc2)c1C	4	12	2	4	-3	i	-16	-8
O=C(Nc1ccc(-n2nncc2-c2ccco2)cc1)c1cc2ccccc2oc1=O	·	61*	-1	-5	7	i	-4	15	eIF4H FP inh retest=91*;PABP FP inh retest=30
Cc1ccc2c(c1)-c1ccccc1S(=O)(=O)N2	-19	-6	-5	1	-7	·	-7	-18
Cc1cccc(-n2nnc3c(=O)n(CC(=O)Nc4cc(C)on4)cnc32)c1	2	4	2	1	-2	i	·	-8
NC(=O)c1ccccc1OCC(=O)N1CCCC1c1ccc2c(c1)OCCCO2 (centres undefined)	11	·	1	-3	·	·	-11	·
O=C(Nc1ccc(S(=O)(=O)N2CCCC2)cc1)c1ccccc1	-1	·	1	1	·	i	-6	2
Cc1ccc(C)c(N2CCN(C(=O)c3cc4ccccc4oc3=O)CC2)c1	23	-8	0	-1	-6	i	1	-21
CC(=O)NCc1ccc(S(=O)(=O)NC(C)CCc2ccccc2)cc1 (centres undefined)	12	-6	2	2	-7	i	-18	5
CC(=O)Nc1cc(C(=O)N2CCCC2)ccc1Sc1ccc(Cl)cc1	-5	4	0	-1	2	i	7	-5
O=C(CN1C(=O)COc2ccccc21)N(Cc1cccnc1)Cc1cccc(F)c1	-62	1	0	-1	-5	i	·	-7
COCC(C)NC(=O)Cn1c(SCc2ccccc2)nc2ccccc21 (centres undefined)	6	-10	-1	3	7	i	1	10
COc1ccc(OC)c(-n2c(SCC(=O)N3CCc4ccccc43)nc3c(c2=O)SCC3)c1	·	7	-5	-1	-6	i	13	·
OC(c1ccccn1)(c1ccccn1)c1ccccn1	5	20	8	6	17	i	·	-1
CN1CCN(C(c2ccc(C(F)(F)F)cc2)c2ccc3cccnc3c2O)CC1 (centres undefined)	17	14	·	·	2	·	·	98*
O=C(Nc1ccc(C(=O)N2CCN(c3ccccc3)CC2)cc1)C1=CSCCO1	2	8	4	5	4	i	-18	-7
CN1C(=O)CSc2ccc(C(=O)O)cc21	-10	-11	-2	4	1	i	-6	7
COc1cc(C(=O)N/C(=C/c2ccc(F)cc2)C(=O)NC(C(=O)O)c2ccccc2)cc(OC)c1OC (centres undefined)	-10	-6	-3	-4	-1	i	9	4

2 entries picked at random from those above:
SMILES	HIV Env fusion	eIF4H FP inh	MT1-MMP act inh	MT1-MMP act inh RFP	PABP FP inh	Rce1 inh	UUG fidelity	CSC inhib	others
O=C(COc1ncnc2cc([N+](=O)[O-])ccc12)NCCc1ccc(Cl)cc1	11	16	2	4	2	i	·	-1
CC(=O)NCc1ccc(S(=O)(=O)NC(C)CCc2ccccc2)cc1 (centres undefined)	12	-6	2	2	-7	i	-18	5

Following part:
SMILES	HIV Env fusion	eIF4H FP inh	MT1-MMP act inh	MT1-MMP act inh RFP	PABP FP inh	Rce1 inh	UUG fidelity	CSC inhib	others
CCN1CCN(CC(=O)Nc2ccc(C)c(Br)c2)CC1	-2	13	9	5	-11	i	4	-7
Cn1c(CC(=O)Nc2ccccc2)nnc1SCC(=O)NC1CCCC1	4	-2	0	1	9	i	·	-7
CN(Cc1ccccc1)C(=O)COC(=O)c1ccc2c(c1)OCO2	·	-14	5	2	7	i	-8	-11
COc1ccc(/C=C/C(=O)OCC(=O)c2ccc3c(c2)NC(=O)CO3)c(OC)c1	4	2	2	-11	-4	i	-19	-4
COc1ccc(C(=O)NC(=S)NC(C)C)cc1Br	·	-9	-3	-5	-8	i	-22	-21
COC(=O)/C=C/c1c(C)nc(NCc2ccccc2)nc1Cl	-6	11	1	0	24	i	-4	-13
C#CCN(C[C@@H]1[C@@H](OC(=O)Nc2c(C)noc2C)[C@@H](OC(=O)Nc2c(C)noc2C)Cn2c(=O)n(CCCCCC)c(=O)n21)S(=O)(=O)c1ccc(C)cc1	-41	·	5	3	·	·	5	·
CCn1c2ccc(F)cc2c2nnc(NN)nc21	i	-5	20	15	-7	i	-4	-6
O=C(NCc1cccc(Cl)c1)C1Cc2c(-c3ccccc3)ccnc2O1 (centres undefined)	-7	·	-1	-5	·	·	-6	·
COc1ccccc1CCNC(=O)C1CCC(=O)N(Cc2ccccc2OC)C1 (centres undefined)	3	-11	3	3	1	i	4	-2
O=C1C=C(O)c2c(O)cc(O)c(O)c2C1=O	·	·	-5	-11	·	i	-13	-6
COc1ccc(C(=O)CSc2nnc(-c3ccco3)n2CC2CCCO2)cc1 (centres undefined)	-38	-4	-8	-2	2	i	-15	-8
O=C(NC1CCCC1)C1CCCN1C(=O)Oc1ccccc1 (centres undefined)	8	-2	0	1	-4	i	·	2
CCCc1nc2c(c(=O)c3ccccc3n2C)c(=O)n1-c1cc(C)cc(C)c1	-16	-10	4	-2	5	i	·	-13
CNC(=O)CSc1nnnn1CCCOC	·	0	-3	0	4	i	-7	0
COc1ccc(Br)cc1CN(C)C(C)C(=O)Nc1cccc(C(C)=O)c1 (centres undefined)	20	-3	-2	-8	-2	i	·	8
COc1ccccc1CNC(=O)c1cccc(C)c1[N+](=O)[O-]	10	-9	-1	3	6	i	-4	-1
CC(C)c1cccc(C(C)C)c1NC(=O)COC(=O)C1CCC1	7	·	1	4	·	i	·	11
Cc1n[nH]c(C)c1N1C(=O)c2cccc3cc(Br)cc(c23)C1=O	·	1	3	4	-7	i	-18	-6
CCOC(=O)c1nc(C)sc1-c1ccnn1S(=O)(=O)c1cccc(Cl)c1	16	6	-4	0	12	i	·	-10
COC(=O)/C=C1/S/C(=N/N=C/c2ccco2)NC1=O	-4	-5	2	0	-6	i	-30	5
COc1ccc(CCCc2nnc(SCc3nc4ccccc4c(=O)[nH]3)n2C)c(C)c1	2	-7	2	2	2	i	·	1
CCN(CC)CCCNC(=O)CSc1nc(-c2cccs2)cc(C(F)(F)F)n1	26	-5	1	4	-2	i	-11	3
Cc1ccc(C)c(/C=C2\N=C(c3ccccc3F)OC2=O)c1	5	-7	1	-4	5	i	-10	-2
O=C(NCC[C@H]1CC[C@H](NS(=O)(=O)c2ccc(F)cc2)[C@@H](CO)O1)c1ccc2c(c1)OCO2	8[16.7 µM]	·	-1	1	·	·	12	·
SMILES	HIV Env fusion	eIF4H FP inh	MT1-MMP act inh	MT1-MMP act inh RFP	PABP FP inh	Rce1 inh	UUG fidelity	CSC inhib	others
CCn1c(SCC(=O)Nc2ccc3c(c2)OCCO3)nnc1-c1cccnc1	0	-16	1	5	-1	i	-4	-7
NC1=NC2=C(CCCC2)C2(CCCCC2)S1	16	-3	-35	-31	24	·	-20	1
CCOC(=O)CN(C(=O)COC(=O)C1=NNC(=O)CC1)c1ccc(F)cc1	-7	·	-2	2	·	·	2	-8
CC1CCCCC1NC(=O)CSc1nnc(-c2ccco2)n1C (centres undefined)	7	·	-2	3	·	·	-6	·
O=c1cc(CS(=O)(=O)c2ccccc2)nc(-c2ccncc2)[nH]1	9	-6	0	5	2	i	·	-20
Cc1ccc(CNC(=O)c2cc3c(=O)n(C)c4ccccc4c3n2C)o1	-41	-2	2	-2	5	i	-25	-11
CSc1ccccc1OCc1cc(C(=O)N(C)Cc2ccncn2)no1	-51	-6	-2	2	-11	i	-5	6
COCCNC(=O)Cn1cc(/C=N/NC(=O)c2ccc(Oc3ccc(O)cc3)cc2)c2ccccc21	-5	-1	-1	0	2	i	·	2
C[C@H](CO)N1C[C@H](C)[C@@H](CN(C)Cc2ccncc2)Oc2c(NC(=O)CCCCCC(=O)Nc3ccccc3N)cccc2C1=O	-18	·	-2	0	·	·	20&0	-24
CCCc1ncc(C(=O)c2ccc(OC)cc2)n1C	-13	0	-1	-2	0	i	·	·
COc1ccc(C(=O)NCC(=O)n2nc(C)cc2C)cc1OC	-6	-8	-2	1	6	i	-14	-6
Cc1ccc(Cn2c(C(C)Nc3nc(-c4ccc(Cl)c([N+](=O)[O-])c4)cs3)nc3cc(C(F)(F)F)ccc32)cc1 (centres undefined)	24	·	-1	-2	·	i	-15	26
Cc1nc2ccc(NS(=O)(=O)c3c(F)cc(F)cc3Br)cc2s1	·	·	-4	-23	·	·	8	-8
O=C(NC(=S)NC1CCSC1=O)c1cccs1 (centres undefined)	15	-1	-1	3	-2	i	·	·
C=CCn1c(CC(=O)Nc2ccc(C)cc2C)nnc1SCC(=O)N1CCOCC1	0	-8	1	5	36	i	-22	13
